# Source: PubChem BioAssay (Broad Institute)
# MLL AF4-AF9 inh – blocks AF4 peptide binding to human AF9 | hit rate 0.47% among 350,000 | AlphaScreen, biotin-AF4 peptide binding to FLAG-AF9 | P42568 | inhibition, % at 10 µM | AID 651704;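 active = every replicate reaching a set inhibition limit, whatever the replicate mean, cut at about 25% in these data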;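 note: 0% = plate neutral control median and 100% = total signal loss; the record names both 10 and 1 µM as test concentration; the first replicate is given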
# Target sequence (P42568 whole entry, looked up): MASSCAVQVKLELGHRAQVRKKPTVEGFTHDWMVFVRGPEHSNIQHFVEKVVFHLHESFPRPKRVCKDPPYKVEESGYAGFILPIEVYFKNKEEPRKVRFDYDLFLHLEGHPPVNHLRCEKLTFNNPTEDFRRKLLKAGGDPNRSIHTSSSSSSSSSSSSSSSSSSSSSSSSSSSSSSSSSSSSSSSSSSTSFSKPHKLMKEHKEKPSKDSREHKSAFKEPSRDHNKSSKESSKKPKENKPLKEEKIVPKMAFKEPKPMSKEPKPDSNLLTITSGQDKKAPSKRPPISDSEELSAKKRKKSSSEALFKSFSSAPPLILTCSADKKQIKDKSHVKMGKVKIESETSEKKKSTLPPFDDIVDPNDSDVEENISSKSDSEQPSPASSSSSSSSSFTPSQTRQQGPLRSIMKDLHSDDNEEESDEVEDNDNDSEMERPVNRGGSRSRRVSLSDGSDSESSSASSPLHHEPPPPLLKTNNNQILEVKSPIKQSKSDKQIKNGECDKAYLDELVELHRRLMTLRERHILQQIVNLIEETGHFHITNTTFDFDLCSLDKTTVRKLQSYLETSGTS
# Ecoli rRNA inh – inhibitors of bacterial rRNA selective over humanized ribosomes; GFP signal change (wild-type ribosome), % (no concentration beside the values); E. coli WT GFP vs humanized-ribosome RFP mutants, fluorescence, 24 h; stronger effect = lower value; DMSO median 0, no signal -100; hit rate 1.6% among 350,000;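 active = significant combined selectivity score with lowered wild-type GFP, culture density cut under 30%, mutant RFP and density less affected; inactive = any of these conditions unmet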; note: one replicate is shown; some compounds called inactive have numbers as strong as hits
# FGF22 binding – FGF22 (human) thermal shift binding. Q9HCT0. recombinant FGF22 thermal shift, SYPRO orange fluorescence; percent of sucrose octasulfate shift, DMSO zero. calls only at 9.99 µM. hit rate 1.5% among 340,000;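 active = melting point raised past a set limit in the mean and every replicate; three in four hits are not shown here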
# Target sequence (Q9HCT0 whole entry, looked up): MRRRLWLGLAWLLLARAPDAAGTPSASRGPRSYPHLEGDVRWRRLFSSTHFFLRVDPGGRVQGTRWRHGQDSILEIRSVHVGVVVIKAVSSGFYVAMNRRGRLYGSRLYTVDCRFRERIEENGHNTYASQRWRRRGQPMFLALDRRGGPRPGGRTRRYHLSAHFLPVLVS
# Ecoli rRNA inh OD600 – recorded beside Ecoli rRNA inh, whose call it bears; OD600 change, %; measured here: OD600 growth;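 optical density of the mix in the first replicate; 0 = DMSO median and -100 = no signal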
# Ecoli rRNA inh RFP – further read-out of Ecoli rRNA inh, marked with its call; RFP signal change, %; measured here: RFP humanized mutant strains;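 first replicate; 0 = DMSO median and -100 = no signal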
# An asterisk follows results filed as active; i = inactive; & = joins results of further samples.
# Values run as follows: MLL AF4-AF9 inh	Ecoli rRNA inh	Ecoli rRNA inh OD600	Ecoli rRNA inh RFP	FGF22 binding
- C[C@H](CO)N1C[C@H](C)[C@H](CN(C)Cc2ccccc2)Oc2ncc(-c3cccc(C#N)c3)cc2C1=O
  -0.7	1	9	-0.1	i
- CC(C)NC(=O)N(C)C[C@@H]1Oc2c(NC(=O)Nc3ccc(F)cc3)cccc2C(=O)N([C@H](C)CO)C[C@@H]1C
  -1.4	-8	-14	-2.3	i
- O=C(NC1CCCCC1)C(c1ccnc2ccccc12)n1c(=O)c(-c2cc3ccccc3[nH]2)nc2ccccc21 (stereo not given)
  -30	0	0	0.8	i
- CC(CCN1CCC(CN2C(=S)NCC2Cc2ccccc2)CC1)c1ccccc1 (stereo not given)
  8.0	0	-1	1.7	i
- CCCCCCN1C[C@@H](n2cc(COC(=O)c3ccccc3)nn2)[C@H](O)C[C@@H]1c1ccccc1
  -3.9	-6	-6	1.3	i
- N#Cc1ccc(-c2ccc3c(c2)[C@@H]2[C@@H](CCN2C(=O)c2ccc4c(c2)OCO4)[C@@H](CO)N3)cc1
  -4.4	-13	-2	12	i
- CC(=O)N(C)C[C@H]1Oc2cc(-c3ccncc3)ccc2S(=O)(=O)N([C@@H](C)CO)C[C@H]1C
  -2.2	6	6	0.6	i
- C[C@@H]1CN([C@H](C)CO)C(=O)Cc2cc(NC(=O)CCN3CCOCC3)ccc2O[C@H]1CN(C)Cc1ccc(-c2ccccc2)cc1
  9.5	0	2	5.2	i
- COc1ccc(S(=O)(=O)N(C)C[C@H]2Oc3c(NC(=O)c4cc(C)nn4C)cccc3C(=O)N([C@H](C)CO)C[C@H]2C)cc1
  -19	0	7	1.1	i
- CC=Cc1ccc2n(c1=O)C[C@H]1[C@H](CO)[C@@H](C(=O)N3CCc4ccccc4C3)[C@@H]2N1CC (mixture of isomers)
  -1.4	5	14	-1.1	i
- C[C@@H]1CN([C@H](C)CO)C(=O)c2cc(NS(=O)(=O)c3cn(C)cn3)ccc2O[C@H]1CN(C)S(=O)(=O)c1ccccc1
  -8.1	0	10	-1.4	i
- Cc1noc(C)c1S(=O)(=O)N(C)C[C@H]1OCCCC[C@@H](C)Oc2ccc(NC(=O)NC(C)C)cc2C(=O)N([C@@H](C)CO)C[C@@H]1C
  -1.1	2	1	-1.8	i
- C[C@@H]1CN([C@@H](C)CO)C(=O)c2cc(C#CC3CC3)cnc2O[C@H]1CN(C)C(=O)Nc1ccccc1
  -3.1	3	-4	-0.6	i
- C[C@@H]1CN([C@H](C)CO)C(=O)c2c(c3ccccc3n2C)-c2ccccc2CO[C@@H]1CN(C)Cc1ccc(-c2ccccc2)cc1
  -10	4	10	0.3	i
- C[C@H]1CN([C@@H](C)CO)C(=O)c2c(c3ccccc3n2C)-c2ccccc2CO[C@H]1CN(C)C(=O)c1cc(Cl)cc(Cl)c1
  1.5	4	5	-1.5	i
- CN(C)C(=O)c1ccc(-c2ccc3c(c2)[C@H]2[C@H](CCN2S(=O)(=O)c2cn(C)cn2)[C@H](CO)N3)cc1
  -2.2	-7	-3	-0.2	i
- Fc1ccc(CNc2ccn3nc(-c4ccccc4)cc3n2)cc1
  -6.7	-42	-74	-10	i
- CCOc1ccc2nc(NC(=O)c3cccc(N4C(=O)CCC4=O)c3)sc2c1
  -0.5	1	-2	-3.5	i
- Cc1ccccc1-c1ccccc1[C@@H]1[C@@H](C#N)N(C(=O)c2ccc(F)cc2)[C@H]1CO
  -3.3	-13	-42	-4.2	i
- CN(C)CCN=Cc1c(O)n(-c2ccc(S(=O)(=O)N3CCOCC3)cc2)c(=O)c2ccccc12
  -22	-3	4	-0.9	i
- CC=Cc1ccc2n(c1=O)C[C@H]1[C@H](CO)[C@@H](C(=O)NCCC)[C@@H]2N1CC1CCCC1 (mixture of isomers)
  0.4	-4	-10	0.9	i
- O=C(Nc1ccc(F)cc1)N1CCCCN2[C@H](CO)[C@H](c3ccc(C#CC4CC4)cc3)[C@H]2C1
  5.8	-61	-77	-14	i
- CN(C)C(=O)[C@H]1[C@H](CO)[C@H]2Cn3c(ccc(-c4ccc(F)cc4)c3=O)[C@@H]1N2CCc1ccccc1
  1.9	-8	-9	-4.5	i
- CC1(Cc2cc(Cl)ccc2C(F)(F)F)C(=O)Nc2c(Cl)cccc21 (stereo not given)
  -0.8	-33	-43	3.8	i
- CCC(=O)N1CC2(C1)CN(S(C)(=O)=O)[C@H](CO)c1[nH]c3cc(OC)ccc3c12
  1.2	2	7	-2.5	i
- COc1ccc(NC(=O)Nc2ccc3c(c2)C(=O)N([C@H](C)CO)C[C@@H](C)[C@@H](CN(C)Cc2ccncc2)OCCCC[C@H](C)O3)cc1
  6.3	-2	-8	1.2	i
- C/C=C/c1ccc([C@H]2[C@@H](CN(C)C(=O)CC)N(C(=O)NCCC)[C@H]2CO)cc1
  -2.4	2	3	-1.7	i
- O=C(NCC[C@H]1CC[C@H](NS(=O)(=O)c2cccc(F)c2)[C@@H](CO)O1)C1CCCC1
  -0.5	2	5	0.8	i
- COCC#Cc1ccc([C@@H]2[C@@H](CO)N3CCCCN(C(=O)COC)C[C@@H]23)cc1
  -4.7	4	1	-1.6	i
- Cn1cnc(S(=O)(=O)N[C@@H]2C=C[C@H](CC(=O)N3CCN(c4ccccc4)CC3)O[C@@H]2CO)c1
  -0.3	4	-1	-0.2	i
- C[C@@H]1CN([C@@H](C)CO)C(=O)c2cc(C#Cc3cccnc3)cnc2O[C@H]1CN(C)S(C)(=O)=O
  -4.7	1	1	0.3	i
- C/C=C/c1ccc2c(c1)O[C@H](CN(C)C(=O)C1CCOCC1)[C@H](C)CN([C@@H](C)CO)S2(=O)=O
  -2.4	-2	-4	-0.3	i
- C[C@@H]1CN([C@H](C)CO)C(=O)c2cc(NC(=O)C3CCCCC3)ccc2O[C@H]1CN(C)C(=O)Nc1cccc2ccccc12
  -3.3	0	-8	0.3	i
- CC(=O)Nc1ccc(CN(C)c2c(C)nc3ccc(C(=O)NCCc4ccccn4)cn23)cc1
  0.9	-10	-9	-2.5	i
- O=C1CCc2cccc(O)c2N1
  -3.9	22	15	1.3	i
- COc1cccc(S(=O)(=O)Nc2ccc3c(c2)[C@@H]2C[C@H](CC(=O)N(C)C)O[C@H](CO)[C@@H]2O3)c1
  -0.8	-1	-1	-2.9	i
- CC(C)N(C[C@@H]1N[C@H](CO)[C@@H]1c1ccccc1)C(=O)c1ccccc1
  -0.1	1	0	-3.4	i
- CCCNC(=O)N1[C@H](CO)[C@H](c2ccccc2-c2ccc(C)cc2)[C@@H]1C#N
  -1.1	12	-18	-2.0	i
- C[C@@H]1CN([C@H](C)CO)C(=O)Cc2cc(NC(=O)c3ccncc3)ccc2O[C@H]1CN(C)S(C)(=O)=O
  -1.3	-1	4	-1.0	i
- CCNC(=O)C1CCCN(C(=O)c2cnc3ccccc3n2)CC1 (stereo not given)
  0.7	4	21	1.0	i
- Cc1ccc(S(=O)(=O)N(C)C[C@@H]2Oc3ccc(NC(=O)Nc4ccc(F)cc4)cc3C(=O)N([C@@H](C)CO)C[C@H]2C)cc1
  2.0	-1	-5	1.2	i
- CO[C@H]1CC[C@H]2CCN(C)C(=O)CC3(CCCCC3)CN(C)C(=O)c3cc(C#N)ccc3OC[C@H]1O2
  -1.2	-4	-4	-1.1	i
- O=C(Cc1ccncc1)NCC[C@@H]1CC[C@H](NC(=O)Nc2ccc(F)cc2)[C@@H](CO)O1
  -0.7	0	-1	-3.0	i
- C[C@@H]1CN([C@H](C)CO)S(=O)(=O)c2ccc(-c3cncnc3)cc2O[C@H]1CN(C)C(=O)Cc1cccnc1
  1.2	-2	-1	1.6	i
- Cc1cccc(S(=O)(=O)N2CCCCN3[C@H](C2)[C@@H](c2ccc(C#CC4CC4)cc2)[C@@H]3CO)c1
  -4.8	-1	2	0.6	i
- CO[C@H]1CN(C)C(=O)c2ccc(NS(=O)(=O)c3ccccc3F)cc2OC[C@H](C)NC[C@@H]1C
  -10&1.9	1&2&1&18	0&0&4&7	-0.6&-0.8&-0.7&-0.3	i
- CCc1ccc(CN(C)C(=O)c2cc(COc3cncc(Cl)c3)on2)cc1
  -5.8	-26	-28	-5.7	i
- O=C(C[C@@H]1CC[C@@H]2[C@H](COC[C@@H](O)CN2Cc2cc(F)ccc2F)O1)NCc1ccc(Cl)cc1
  3.0	-9	-14	-3.6	i
- COc1ccccc1S(=O)(=O)N[C@@H]1C=C[C@@H](CC(=O)NCc2cccc(F)c2)O[C@@H]1CO
  -1.7	-3	1	-1.0	i
- O=C(C[C@H]1CC[C@@H]2[C@H](COC[C@@H](O)CN2Cc2ccc(C(F)(F)F)cc2)O1)NCCc1ccccc1
  0.8	-2	-40	8.2	i
- C[C@@H]1CCCCO[C@@H](CN(C)C(=O)C2CCCCC2)[C@@H](C)CN([C@@H](C)CO)C(=O)c2cc(N(C)C)ccc2O1
  -9.9	-2	-3	-2.6	i
- COc1ccc(CN(C)C[C@H]2Oc3ccc(NC(=O)NC4CCCCC4)cc3C(=O)N([C@@H](C)CO)C[C@H]2C)cc1
  1.6	0	-10	-0.9	i
- COc1ccc(CCN(C)C(=O)c2cccc(S(=O)(=O)N3CCN(c4ccc(F)cc4)CC3)c2)cc1OC
  0.9	-12	-26	-2.8	i
- C[C@H]1CCCCO[C@@H](CN(C)S(=O)(=O)c2ccc(F)cc2)[C@@H](C)CN([C@@H](C)CO)C(=O)c2cc(NC(=O)Nc3cccc4ccccc34)ccc2O1
  -1.0	5	4	-3.8	i
- CCS(=O)(=O)N1CC(=O)N2[C@H](CO)[C@H](c3ccc(-c4ccc(C)cc4)cc3)[C@@H]2C1
  -1.4	4	2	-4.8	i
- C[C@H](CO)N1C[C@H](C)[C@H](CN(C)C(=O)c2ccccc2)OCCCC[C@H](C)Oc2ccc(NC(=O)C3CCCCC3)cc2C1=O
  -2.4	2	-3	1.5	i
- CN1c2ccc(Br)cc2[C@H]2[C@H](CCN2S(=O)(=O)c2ccccc2)[C@H]1CO
  2.5	-19	-30	-8.2	i
- CNC[C@@H]1OCCCC[C@@H](C)Oc2ccc(NC(=O)C3CCCCC3)cc2C(=O)N([C@H](C)CO)C[C@H]1C
  -10	7	7	-1.5	i
- C[C@@H]1CN([C@H](C)CO)C(=O)CCCn2nncc2CO[C@@H]1CN(C)S(=O)(=O)c1ccc2ccccc2c1
  4.0&-0.5&2.8	4&-3	4&-7	3.0&4.1	i
- C[C@@H]1CN([C@@H](C)CO)C(=O)c2cc(NS(=O)(=O)c3ccccc3)ccc2O[C@@H](C)CCCCO[C@@H]1CN(C)C(=O)c1ccncc1
  -2.9	0	3	-3.7	i

# Later entries
# Values run as follows: MLL AF4-AF9 inh	Ecoli rRNA inh	Ecoli rRNA inh OD600	Ecoli rRNA inh RFP	FGF22 binding
- COc1ccccc1-c1ccc2c(c1)O[C@H](CN(C)S(=O)(=O)c1ccc(C)cc1)[C@H](C)CN([C@H](C)CO)S2(=O)=O
  1.4	2	2	-0.4	i
- COc1cccc(NC(=O)N[C@H]2CC[C@@H](CC(=O)N3CCN(C)CC3)O[C@@H]2CO)c1
  -1.2	1	4	-1.0	i
- C[C@@H]1CN([C@@H](C)CO)C(=O)c2cc(NS(=O)(=O)c3ccc(Cl)cc3)ccc2O[C@H]1CN(C)C(=O)Nc1ccc(F)cc1
  0.2	3	1	-1.1	i
- COc1ccc(NC(=O)N(C)C[C@H]2OCCCC[C@H](C)Oc3ccc(NC(=O)Nc4ccccc4)cc3C(=O)N([C@@H](C)CO)C[C@H]2C)cc1
  -3.7	0	4	-1.2	i
- CN(C)c1ncnc2c1ncn2C1CCCO1 (stereo not given)
  -0.5	17	8	-1.1	i
- CCOC(=O)N1CCC(NS(=O)(=O)c2cc3c(cc2Br)CCN3C(=O)CC)CC1
  -2.4	6	6	1.3	i
- C/C=C/c1ccc([C@H]2[C@@H](CO)N(C(=O)CC)[C@H]2CNC(=O)C2CC2)cc1
  -4.2	-1	-4	-1.6	i
- CCCCOc1ccc(S(=O)(=O)NC(=O)C2(C)CCN2C(=O)c2cccc(F)c2)cc1 (stereo not given)
  -5.5	-9	-6	6.5	i
- COc1ccccc1N(C)S(=O)(=O)c1ccc(C(=O)NNC(=O)c2ccccc2O)cc1
  -3.0	-16	-36	-6.2	i

# Ordered by the number under Ecoli rRNA inh (highest first): some entries from above
# Values run as follows: MLL AF4-AF9 inh	Ecoli rRNA inh	Ecoli rRNA inh OD600	Ecoli rRNA inh RFP	FGF22 binding
- C[C@H]1CN([C@@H](C)CO)C(=O)c2c(c3ccccc3n2C)-c2ccccc2CO[C@H]1CN(C)C(=O)c1cc(Cl)cc(Cl)c1
  1.5	4	5	-1.5	i
- C[C@@H]1CN([C@@H](C)CO)C(=O)c2cc(C#CC3CC3)cnc2O[C@H]1CN(C)C(=O)Nc1ccccc1
  -3.1	3	-4	-0.6	i
- CN(C)C(=O)c1ccc(-c2ccc3c(c2)[C@H]2[C@H](CCN2S(=O)(=O)c2cn(C)cn2)[C@H](CO)N3)cc1
  -2.2	-7	-3	-0.2	i

# This is a subset. The share of hits here may be higher or lower than overall.
